ID4 binder: ID4 (human) binding; P47928; small molecule microarray, Flag-ID4 binding, fluorescence F/B; calls only; 31,000 tested, 1.2% active;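 active = spot signal over background at p below 0.07 in all four prints; compounds were printed on slides so no solution concentration is given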;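 also: a binder raises fluorescence above local background on the spot; about 2 pmol printed per array spot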
Target sequence (P47928 whole entry, looked up): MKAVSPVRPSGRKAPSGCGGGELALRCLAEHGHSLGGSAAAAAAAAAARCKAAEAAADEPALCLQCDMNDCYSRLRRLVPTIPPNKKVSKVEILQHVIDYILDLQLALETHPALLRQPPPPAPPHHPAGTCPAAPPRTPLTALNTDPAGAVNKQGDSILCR
Calls only; i = inactive; + = active, no number. These rows are one share of the data. The share of hits here may be higher or lower than overall.

SMILES	ID4 binder
COc1ccccc1-c1ccc2c(c1)O[C@@H](CN(C)CC1CC1)[C@H](C)CN([C@@H](C)CO)S2(=O)=O	i
O=C(Cc1ccccc1)N[C@@H]1CC[C@H](CC(=O)N2CCOCC2)O[C@@H]1CO	i
COc1cc(Cl)c(C)cc1NC(=O)CSC1=C(C#N)C(c2ccccc2F)CC(=O)N1 (configuration not stated)	i
COc1cc2nc(SCC(N)=O)n3nc(CCn4c(C)nc5ccccc54)nc3c2cc1OC	i
Cc1cc(Cl)ccc1OCC(=O)Nc1cccc(NC(=O)c2ccccc2C)c1	i
O=C(CSc1n[nH]c(-c2ccc(Cl)cc2)n1)Nc1cccc(C(F)(F)F)c1	i
C/C=C/c1cnc2c(c1)C(=O)N([C@H](C)CO)C[C@H](C)[C@H](CN(C)C(=O)C1CC1)O2	i
CN(C)C(=O)C[C@@H]1C=C[C@H](NC(=O)C2CC2)[C@@H](CO)O1	i
COc1ccccc1-c1cnc2c(c1)C(=O)N([C@@H](C)CO)C[C@H](C)[C@H](CN(C)Cc1ccccc1)O2	i
Cc1cc(Nc2cnn(-c3nc4ccccc4o3)c(=O)c2Cl)ccc1Br	i
C[C@@H]1CN([C@@H](C)CO)C(=O)c2cc(/C=C/c3ccccc3)cnc2O[C@H]1CN(C)C(=O)Nc1ccccc1F	+
O=C(N[C@H]1CC[C@H](CC(=O)N2CCc3ccccc3C2)O[C@H]1CO)C1CC1	i
COc1ccccc1NC(=O)Cn1cc(C(=O)C2CCCCC2)c2ccccc21	i
Cc1cc(I)ccc1NC(=O)CCN1C(=O)c2cccc([N+](=O)[O-])c2C1=O	i
CC(C)(O)C1=CCC23COC(C2)C(O)(C(=O)O)CCC13 (configuration not stated)	i
Cc1ccc([N+](=O)[O-])cc1NC(=O)CN(c1ccccc1F)S(C)(=O)=O	i
O=C(Cc1ccccc1)N[C@@H]1C=C[C@H](CC(=O)N2CCOCC2)O[C@@H]1CO	i
O=C(CC1CC1)Nc1ccc2c(c1)[C@@H]1C[C@H](CC(=O)N3CCCCC3)O[C@H](CO)[C@@H]1O2	i
CO[C@@H](CN(C)S(=O)(=O)c1ccc(C)cc1)[C@H](C)CN(Cc1ccccc1Cl)[C@H](C)CO	i
CCOc1ccc(NC(=O)c2c(NC(=O)c3ccco3)sc3c2CCCCC3)cc1	i
CO[C@@H]1CN(C)C(=O)c2ccc(NC(=O)c3cccnc3)cc2OC[C@@H](C)N(CC2CC2)C[C@H]1C	i
COCC(=O)N[C@@H]1CC[C@@H](CC(=O)N2CCCCC2)O[C@H]1CO	i
COC(=O)C[C@@H]1C=C[C@@H](NC(=O)c2ccccc2)[C@@H](CO)O1	i
O=C(Nc1cccc(Cn2cccn2)c1)c1cc(-c2cccnc2)nc2ccc(Cl)cc12	i
C[C@H]1CN([C@@H](C)CO)C(=O)Cc2cc(NC(=O)C3CC3)ccc2O[C@H]1CN(C)Cc1ccccc1	i
Cc1ccc2oc(-c3ccccc3)c(CN3CCOCC3)c(=O)c2c1	i
O=C(O)CCc1ccc(-c2ccc(F)cc2)n1-c1cccc(C(=O)O)c1	i
O=C(N[C@@H]1C=C[C@H](CC(=O)N2CCC(Cc3ccccc3)CC2)O[C@H]1CO)c1cnccn1	i
O=C(O)C[C@H]1CC[C@H](NC(=O)c2ccccc2F)[C@H](CO)O1	i
CN(C)c1ccc2c(c1)[C@H]1C[C@H](CC(=O)NCCc3ccccc3)O[C@@H](CO)[C@H]1O2	i
COc1ccc(C(=O)Nc2ccc(Oc3ncnc4cc(Cl)ccc34)nc2)cc1	i
COc1cccc(-c2cnc3c(c2)C(=O)N([C@@H](C)CO)C[C@@H](C)[C@@H](CN(C)Cc2cccnc2)O3)c1	i
O=C1CCCc2c1n(CCN(Cc1ccccc1)Cc1ccccc1)c1ccc(Cl)cc21	i
COc1cc(CO)cc(Cl)c1OCc1cccc([N+](=O)[O-])c1	i
O=C(C[C@@H]1C=C[C@@H](NC(=O)C2CCC2)[C@H](CO)O1)NC1CCCCC1	i
C[C@@H]1CN([C@@H](C)CO)S(=O)(=O)c2ccc(C#CCN(C)C)cc2O[C@@H]1CN(C)CC1CC1	i
CN(C)C=NC(=O)c1ccc(-c2cccs2)s1	i
CCN(CC(=O)O)S(=O)(=O)c1cc(Cl)ccc1Cl	i
COc1cccc(NC(=O)CSc2ncnc3scc(-c4ccc(C)cc4)c23)c1	i
Cc1cccnc1NC(=O)Cn1nc([N+](=O)[O-])cc1C	i
COc1cccc(S(=O)(=O)NCc2ccc(C(=O)O)cc2)c1	i
O=C(C[C@@H]1C=C[C@@H](NC(=O)CC2CC2)[C@H](CO)O1)NCC(F)(F)F	i
O=C(CSc1nnc(-c2ccccc2Cl)n1-c1ccccc1)Nc1ccccc1C(F)(F)F	i
CN(CC(=O)Nc1cc(C(F)(F)F)ccc1Cl)S(=O)(=O)c1ccc2ccccc2c1	i
COc1cc(C(c2c[nH]c3ccccc23)c2c[nH]c3ccccc23)c(O)c([N+](=O)[O-])c1	i
C=CCNC(=O)[C@H]1[C@@H]2C(=O)O[C@@H](c3ccccc3)[C@@H](c3ccccc3)N2[C@@H](c2ccc(O)cc2)[C@]12C(=O)Nc1ccccc12	i
CCCN(C)C[C@H]1Oc2ncc(C#Cc3ccccc3OC)cc2C(=O)N([C@@H](C)CO)C[C@H]1C	i
COc1ccc(Cl)cc1NC(=O)CSc1nnc(N)s1	i
C[C@@H]1CN([C@@H](C)CO)S(=O)(=O)c2ccc(-c3ccc(F)cc3)cc2O[C@@H]1CN(C)CC1CC1	i
COc1cc(NC(=O)COc2cc(Cl)c(Cl)cc2Cl)ccc1NC(=O)c1cc2ccccc2o1	i
COc1ccc(-n2c(SCC(=O)Nc3ccc(F)cc3F)nnc2-c2ccco2)cc1	i
COC(=O)c1cc(OC)c(OC)cc1NC(=O)COc1ccc(Br)cc1Cl	i
O=C(Nc1cccc(S(=O)(=O)C(F)F)c1)c1ccc(S(=O)(=O)N2CCOCC2)cc1	i
C/C=C/c1cnc2c(c1)C(=O)N([C@H](C)CO)C[C@@H](C)[C@H](CN(C)C(=O)C1CCC1)O2	i
CCOC(=O)c1c(NC(=O)c2ccccc2N(C)S(C)(=O)=O)sc2c1CCCC2	i
C[C@@H]1CN([C@H](C)CO)C(=O)c2ccccc2-c2ccccc2CO[C@H]1CN(C)C(=O)c1ccccc1	i
CCC(=O)Nc1cccc(NC(=O)COc2ccc3ccccc3c2)c1	i
Cc1ccc(OCCCCSc2nc(C)cc(=O)[nH]2)c(C)c1	i
O=C(NCc1ccccn1)Nc1ccc([N+](=O)[O-])cc1	i
CCCC#Cc1cnc2c(c1)C(=O)N([C@H](C)CO)C[C@@H](C)[C@@H](CN(C)C(=O)c1cccc(F)c1)O2	i

Following part
SMILES	ID4 binder
OC(CSc1cccc2cccnc12)Cn1c2ccccc2c2ccccc21 (configuration not stated)	i
O=C(CSc1nnc(-c2ccccc2)n1-c1ccccc1)c1cccc([N+](=O)[O-])c1	i
O=C(NCc1cccnc1)c1ccc(Cl)c(S(=O)(=O)N2CCOCC2)c1	i
O=C(NCCCN1CCCC1=O)c1cc(-c2ccccc2)nc2ccccc12	i
O=C(CCC1COc2ccccc2O1)Nc1ccc(NC(=O)c2ccccc2F)cc1 (configuration not stated)	i
CN(C1CCCCC1)S(=O)(=O)c1cc(Br)cc2c1N(C(=O)C1CC1)CC2	i
CC(C)CC#Cc1cnc2c(c1)C(=O)N([C@H](C)CO)C[C@@H](C)[C@H](CN(C)Cc1ccc(F)cc1)O2	i
COC(=O)C1=C(C)NC(=O)NC1c1cccc(OC)c1OCc1ccccc1 (configuration not stated)	i
CN(CC(=O)Nc1cccc2c1CCCC2)S(=O)(=O)c1ccc(Br)cc1	i
CC(C)C#Cc1cnc2c(c1)C(=O)N([C@@H](C)CO)C[C@H](C)[C@H](CN(C)C(=O)c1ccccc1F)O2	i
COc1ccc(S(=O)(=O)N(C)CC(=O)Nc2ccc(I)cc2)cc1C	i
C=CCNC(=O)[C@H]1[C@@H]2C(=O)O[C@@H](c3ccccc3)[C@@H](c3ccccc3)N2[C@@H](c2ccc(OCCO)cc2)[C@]12C(=O)N(C(=O)OCCOC)c1ccc(C#Cc3ccc(OC)cc3)cc12	i

Reformatted: results already given.
SMILES | ID4 binder
CCOC(=O)c1c(NC(=O)c2ccccc2N(C)S(C)(=O)=O)sc2c1CCCC2 | i
C[C@@H]1CN([C@H](C)CO)C(=O)c2ccccc2-c2ccccc2CO[C@H]1CN(C)C(=O)c1ccccc1 | i
CCC(=O)Nc1cccc(NC(=O)COc2ccc3ccccc3c2)c1 | i
Cc1ccc(OCCCCSc2nc(C)cc(=O)[nH]2)c(C)c1 | i
O=C(NCc1ccccn1)Nc1ccc([N+](=O)[O-])cc1 | i
CCCC#Cc1cnc2c(c1)C(=O)N([C@H](C)CO)C[C@@H](C)[C@@H](CN(C)C(=O)c1cccc(F)c1)O2 | i
OC(CSc1cccc2cccnc12)Cn1c2ccccc2c2ccccc21 (configuration not stated) | i
O=C(CSc1nnc(-c2ccccc2)n1-c1ccccc1)c1cccc([N+](=O)[O-])c1 | i
O=C(NCc1cccnc1)c1ccc(Cl)c(S(=O)(=O)N2CCOCC2)c1 | i
O=C(NCCCN1CCCC1=O)c1cc(-c2ccccc2)nc2ccccc12 | i
O=C(CCC1COc2ccccc2O1)Nc1ccc(NC(=O)c2ccccc2F)cc1 (configuration not stated) | i
CN(C1CCCCC1)S(=O)(=O)c1cc(Br)cc2c1N(C(=O)C1CC1)CC2 | i
CC(C)CC#Cc1cnc2c(c1)C(=O)N([C@H](C)CO)C[C@@H](C)[C@H](CN(C)Cc1ccc(F)cc1)O2 | i
COC(=O)C1=C(C)NC(=O)NC1c1cccc(OC)c1OCc1ccccc1 (configuration not stated) | i
CN(CC(=O)Nc1cccc2c1CCCC2)S(=O)(=O)c1ccc(Br)cc1 | i

Next results follow:
SMILES	ID4 binder
Cc1ccc(Cl)cc1NC(=O)C(C)n1cc([N+](=O)[O-])cn1 (configuration not stated)	i
O=C(C[C@@H]1CC[C@@H](NC(=O)Cc2ccccn2)[C@@H](CO)O1)NCCc1ccccc1	i
CCOC(=O)c1c(NC(=O)CSc2nccc(C)n2)sc2c1CCCC2	i
Cc1c(C=Nc2ccc(C(C)C)cc2)sc2ccccc12	i
Oc1cc(O)cc(/C=C/c2ccccc2)c1	i
CN(CC(=O)Nc1ccc(Nc2ccccc2)cc1)S(=O)(=O)c1ccccc1	i
COc1ccc(CNC(=O)C[C@H]2CC[C@H](NC(=O)CN(C)C)[C@@H](CO)O2)cc1	i
CCOC(=O)CSc1n[nH]c(CC)n1	i
O=C(CSc1nc(-c2ccccc2)cs1)Nc1ccccc1C(F)(F)F	i
COc1ccc([N+](=O)[O-])cc1N(CC(=O)N1CCCC1)S(C)(=O)=O	i
Cc1ccccc1-c1ccc2c(c1)O[C@H](CN(C)C(=O)c1ccccn1)[C@@H](C)CN([C@@H](C)CO)S2(=O)=O	i
O=C(C[C@H]1CC[C@H](NS(=O)(=O)c2ccccc2F)[C@H](CO)O1)NCCCN1CCOCC1	i
O=C(NCC[C@@H]1CC[C@@H](NC(=O)C2CC2)[C@@H](CO)O1)c1ccc(F)cc1	i
CCN(CC(=O)Nc1ccccc1F)S(=O)(=O)c1ccc2ccccc2c1	i
Cc1ccnc(NC(c2cccc(Cl)c2)c2ccc3ccc(C)nc3c2O)c1 (configuration not stated)	i
C[C@@H]1CN([C@@H](C)CO)S(=O)(=O)c2ccc(/C=C/c3ccccc3)cc2O[C@@H]1CN(C)Cc1cccnc1	i
C[C@H]1CN([C@@H](C)CO)C(=O)c2cc(-c3cccc(F)c3)cnc2O[C@H]1CN(C)CC1CCOCC1	i
O=C(C[C@@H]1CC[C@H](NC(=O)Nc2cc(F)ccc2F)[C@H](CO)O1)NCc1ccncn1	i
COc1ccccc1S(=O)(=O)N[C@@H]1C=C[C@H](CC(=O)N2CCOCC2)O[C@@H]1CO	i
O=C(NC1CCCCC1)c1c(NC(=O)c2cc(-c3cccnc3)nc3ccccc23)sc2c1CCC2	i
COc1cc(O[C@@H]2O[C@H](CO)[C@@H](O)[C@H](O)[C@H]2O)cc(OC)c1OC	i
O=C(Nc1ccc(F)c(Cl)c1)C1CC(=O)n2ncnc2N1 (configuration not stated)	i
COc1ccc(-c2cc3ccccc3oc2=O)cc1NC(=O)COc1ccc(Cl)cc1C	i
CC(C)CC#Cc1cnc2c(c1)C(=O)N([C@H](C)CO)C[C@H](C)[C@H](CN(C)C(=O)Cc1ccccc1)O2	i
C[C@@H]1CN([C@@H](C)CO)S(=O)(=O)c2ccc(C#CC3CCCCC3)cc2O[C@H]1CN(C)Cc1cccnc1	i
C[C@H]1CN([C@@H](C)CO)S(=O)(=O)c2ccc(C#CC3(O)CCCC3)cc2O[C@H]1CN(C)C(=O)Nc1ccc(F)cc1	i
CCc1cccc(OCC(=O)Nc2sc3c(c2C(N)=O)CCCC3)c1	i
O=C(CCC(=O)c1ccc(Oc2ccccc2)cc1)Nc1ccc(C(=O)O)cc1	i
CCCNC(=O)[C@@]1(Sc2ccc(C)cc2)CC(=O)N(C2CCCCC2)[C@@H]1c1ccc(CO)cc1I	i
CN(CCCc1nc2ccccc2[nH]1)S(=O)(=O)c1ccc(Cl)cc1	i
O=[N+]([O-])c1ccc(N2CCN(S(=O)(=O)c3ccc(Cl)s3)CC2)cc1NCc1ccco1	i
O=C(CSc1nc2ccccc2c(=O)[nH]1)Nc1ccc(F)cc1F	i
C/C=C/c1cnc2c(c1)C(=O)N([C@H](C)CO)C[C@@H](C)[C@@H](CN(C)Cc1ccncc1)O2	i
COc1ccc(C(=O)Nc2ccccc2C(=O)NCCN2CCOCC2)cc1	i
O=C(C[C@H]1C=C[C@@H](NC(=O)CCN2CCCCC2)[C@H](CO)O1)NCc1ccc(Cl)c(Cl)c1	i
C[C@H](CO)N1C[C@H](C)[C@H](CN(C)Cc2ccc(F)cc2)Oc2cc(C#CC(C)(C)O)ccc2S1(=O)=O	i
Cc1cc(C)c(C#N)c(SCC(O)CS(=O)c2ccc(C(C)(C)C)cc2)n1 (configuration not stated)	i
CCOc1ccc(-n2cnnn2)cc1S(=O)(=O)Nc1c(C)cccc1C	i
C[C@@H]1CN([C@H](C)CO)C(=O)c2cc(C#Cc3ccccc3F)cnc2O[C@H]1CN(C)C	i
COc1ccc(S(=O)(=O)N(C)CC(=O)Nc2cccc(F)c2)cc1OC	i

Screening results (PubChem)
